# High-throughput results (PubChem)
# Rango-impB inh = qHTS Assay for Inhibitors of Rango (Ran-regulated importin-beta cargo) - Importin beta complex formation | hit rate 0.031% among 340,000 | Rango CFP/YFP FRET sensor + importin beta, 45 min | Potency, µM (top dose mostly 92.2 µM), without a hit: at the highest dose inhibition of complex formation | Importin subunit beta-1 (Homo sapiens), Q14974 | AID 540263, 2011; active = rising FRET ratio curve, often small or poorly fitted; inconclusive = mostly compound fluorescence or quenching in the first reads; inactive = flat curves in all reads;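 further: potency means the concentration at half of the fitted maximal effect; 0% = DMSO wells and 100% = buffer wells lacking importin beta; nearly all actives have a fitted effect of over 15% in size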
#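 FRET biosensor Rango (snurportin 1 IBB between N-terminal EYFP and C-terminal Cerulean), 50 nM in PBS/1 mM DTT/0.02% Tween-20/0.1% BSA, preincubated 5 min RT with compound; 0.125 microM importin beta added, 45 min RT, CFP/YFP FRET ratio read.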
# GLA inh pH 4.5 = qHTS Assay for Inhibitors of Human alpha-Galactosidase at pH 4.5. Alpha-galactosidase A (Homo sapiens), P06280. purified enzyme, 4-MU-alpha-Gal fluorescence, pH 4.5. activity change, negative = inhibition, % at 105 µM. 230,000 tested, under 10 active. AID 1467, 2008; inconclusive = small, poorly fitted or top-dose-only inhibition, or a rising curve; inactive = flat fitted curve, though single readings scatter; no compound was filed as active;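 further: 0% = full activity with enzyme and -100% = basal without enzyme; dose as in the result columns while the protocol names 77 µM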
# Target sequence (P06280 whole entry, looked up): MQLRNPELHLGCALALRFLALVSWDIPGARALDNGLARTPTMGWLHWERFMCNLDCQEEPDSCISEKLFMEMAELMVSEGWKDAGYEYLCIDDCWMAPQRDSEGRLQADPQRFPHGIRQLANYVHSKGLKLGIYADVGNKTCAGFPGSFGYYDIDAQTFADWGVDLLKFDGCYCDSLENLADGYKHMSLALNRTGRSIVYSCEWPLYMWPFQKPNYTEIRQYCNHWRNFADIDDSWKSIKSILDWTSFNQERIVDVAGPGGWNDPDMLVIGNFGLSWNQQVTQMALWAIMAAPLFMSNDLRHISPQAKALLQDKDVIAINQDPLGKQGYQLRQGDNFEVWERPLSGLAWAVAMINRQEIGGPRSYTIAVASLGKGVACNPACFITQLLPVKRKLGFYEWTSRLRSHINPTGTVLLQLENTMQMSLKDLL
# miR-21 reporter = qHTS Assay for Modulators of miRNAs and/orActivators of miR-21; HeLa miR-21 FLuc reporter, luciferase, 48 h; Potency, µM (top dose mostly 38.3 µM), for inactives: top-dose reporter change, positive = more light; 340,000 tested, under 10 active; active = well fitted rising curve with a large enough effect; inconclusive = small, poorly fitted or top-dose-only effect; inactive = no such curve, though single readings can be large or run the other way;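 further: % of control where 0% means no effect; miR-21 action dims this reporter so a rising signal means less miR-21 action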
#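 HeLa cells stably expressing CMV-driven firefly luciferase with a downstream miR-21 binding sequence, endogenously expressing miR-21, were treated with titrations (up to about 40uM final) for 48 hours at 37 degree Celsius. Luciferase luminescence was read after lysis.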
# Rango release inh = qHTS Assay for Inhibitors of RanGTP induced Rango (Ran-regulated importin-beta cargo) - Importin beta complex dissociation; Biochemical FRET Rango-importin beta, RanGTP-induced dissociation; Potency, µM (doses to about 46.1 µM), for the others: top-dose activity change, negative = inhibition; hit rate 0.071% among 340,000; AID 540253, 2011; active means falling FRET ratio curve, often poorly fitted, with flat reads before Ran was added; inconclusive means other falling curves, or compound fluorescence or quenching; inactive means flat or rising ratio curve;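 further: potency means the concentration at half of the fitted maximal effect; % of control where 0% means no effect; nearly all actives have a fitted effect of over 45% in size; -100% = wells without RanGTP and RCC1; the record marks most hits as doubtful in a second field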
#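 FRET read at 45 min, room temperature: inhibitors block the CFP/YFP signal rise when RanGTP (0.6 uM Ran, 2 mM GTP, 0.2 uM RCC1) frees Rango (0.1 uM) from importin beta (0.25 uM). Pre-read after 5 min compound exposure flags interference.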
# * marks the source's active call; other numbers are inactive results; ? = inconclusive; nt = no result given; & = joins results of further samples. Only part of the results is shown; rates above refer to the full screens.
# Sample of the layout, 4 compounds:
1: C#CCOCCOCCOCCNc1nc(N2CCN(C(=O)[C@H](Cc3cc4ccccc4[nH]3)n3cc([C@@H](N)Cc4ccc(O)cc4)nn3)CC2)nc(N2CCN(C(=O)[C@H](Cc3cc4ccccc4[nH]3)n3cc([C@@H](N)CC(C)C)nn3)CC2)n1
2: O=C(COc1ccc(S(=O)(=O)N2CCCC2)cc1)N1CCN(c2ccccc2F)CC1
3: COc1ccc(CN2C(=O)c3cccnc3C2O)cc1 (centres undefined)
4: COc1ccc(OCC(O)Cn2c(=N)n(CCN3CCOCC3)c3ccccc32)cc1 (centres undefined)

screen / no.	1	2	3	4
Rango-impB inh	0.7%	0.0%	4.6%	-3.6%
GLA inh pH 4.5	-9	nt	4	5
miR-21 reporter	15%	14%	-2%	2%
Rango release inh	16%	5%	-2%	2%

# The list itself, from the start:
1: C#CCOCCOCCOCCNc1nc(N2CCN(C(=O)[C@H](Cc3cc4ccccc4[nH]3)n3cc([C@@H](N)Cc4ccc(O)cc4)nn3)CC2)nc(N2CCN(C(=O)[C@H](Cc3cc4ccccc4[nH]3)n3cc([C@@H](N)CC(C)C)nn3)CC2)n1
2: O=C(COc1ccc(S(=O)(=O)N2CCCC2)cc1)N1CCN(c2ccccc2F)CC1
3: COc1ccc(CN2C(=O)c3cccnc3C2O)cc1 (centres undefined)
4: COc1ccc(OCC(O)Cn2c(=N)n(CCN3CCOCC3)c3ccccc32)cc1 (centres undefined)
5: CCCN(CCC)CCNC(=O)C1c2ccccc2C(=O)N(CCOC)C1c1ccc(F)cc1 (centres undefined)
6: COc1ccc(NC(=O)CCNS(=O)(=O)c2cccc3nonc23)cc1

screen / no.	1	2	3	4	5	6
Rango-impB inh	0.7%	0.0%	4.6%	-3.6%	6.0%	3.1%
GLA inh pH 4.5	-9	nt	4	5	2	nt
miR-21 reporter	15%	14%	-2%	2%	-4%	1%&0%
Rango release inh	16%	5%	-2%	2%	-2%	0%

7: CSc1nc2ccccc2n1Cc1c(Cl)cccc1Cl
8: C#CCNc1nc(C)nc2c1nnn2Cc1ccccc1F
9: CC1CCC2(CC1)NC(=O)N(CC(=O)NCc1ccc(F)cc1)C2=O (centres undefined)
10: COC(=O)c1sccc1NC(=O)C1C2C=CC(O2)C1C(=O)O (centres undefined)
11: CCOc1ccc2[nH]cc(S(=O)(=O)c3ccc(Cl)cc3)c(=O)c2c1
12: Cc1ccc(C)c(CSc2nnc(C)c(=O)[nH]2)c1

screen / no.	7	8	9	10	11	12
Rango-impB inh	1.5%	-3.4%	?	1.4%	-0.2%	1.7%
GLA inh pH 4.5	0	4	nt	-8	1	0
miR-21 reporter	2%	-15%	nt	1%	26%	-4%
Rango release inh	-16%	-4%	2%	14%	3%	20%

13: COc1ccc(CN(C)C(=O)c2[nH]c(C)c(C(C)=O)c2C)c(OC)c1OC
14: CC(C)NC(=O)C1CCN(C(=O)C(C(=O)c2ccccc2)n2cc(Cl)ccc2=O)CC1 (centres undefined)
15: CCCC(NC(=O)CCc1c(C)c2cc3c(-c4ccccc4)coc3cc2oc1=O)C(=O)O (centres undefined)
16: Cc1cccc(C(=O)O/N=C(\N)CS(=O)(=O)c2ccccc2)c1
17: CS(=O)(=O)N1CCN=C1SCc1ccc(F)cc1
18: CN1CCN(C(=O)C2CCC(CNS(=O)(=O)c3cccc4cccnc34)CC2)CC1 (centres undefined)

screen / no.	13	14	15	16	17	18
Rango-impB inh	-4.8%	0.1%	-0.9%	-2.2%	-0.3%	-4.0%
GLA inh pH 4.5	nt	0	nt	nt	nt	-1
miR-21 reporter	20%	-4%	3%	-17%	-6%	0%
Rango release inh	18%	-2%	-6%	3%	-9%	27%

19: Cc1c(NC(=O)CSC(=S)N2CCCC2)c(=O)n(-c2ccccc2)n1C
20: CCC(C)NS(=O)(=O)c1ccc(NC(=O)CNCc2cccs2)cc1 (centres undefined)
21: CCOC(=O)c1sc(NC(=O)CN(CC)CC)c(C(=O)OCC)c1C
22: Cc1cccn2c(=O)c3cc(C#N)c(=N)n(CCN4CCOCC4)c3nc12
23: Cc1cc(C)n(CCNS(=O)(=O)c2ccc(C)c(C)c2)n1
24: O/N=C1/CCCCc2sccc21

screen / no.	19	20	21	22	23	24
Rango-impB inh	-3.9%	5.3%	-2.3%	?	8.0%	2.1%
GLA inh pH 4.5	nt	nt	4	15	nt	-1
miR-21 reporter	nt	nt	-1%	-16%	-6%	-3%
Rango release inh	-2%	-21%	1%	8.2µM*	-22%	-14%

# Part of the list above, set out differently:
No. | structure | Rango-impB inh | GLA inh pH 4.5 | miR-21 reporter | Rango release inh
20 | CCC(C)NS(=O)(=O)c1ccc(NC(=O)CNCc2cccs2)cc1 (centres undefined) | 5.3% | nt | nt | -21%
22 | Cc1cccn2c(=O)c3cc(C#N)c(=N)n(CCN4CCOCC4)c3nc12 | ? | 15 | -16% | 8.2µM*

# More records follow:
25: Cc1ccc(S(=O)(=O)/C(C#N)=C/c2c(N3CCN(C)CC3)nc3ccccn3c2=O)cc1
26: CC[C@@]1(C(=O)OC)N[C@H](CN(C)C(=O)c2ccc(F)cc2)[C@@H]2C(=O)N(Cc3ccccc3)C(=O)[C@@H]21
27: CCCN(CCC)S(=O)(=O)c1ccc(Cl)c([N+](=O)[O-])c1
28: CC1CCCCN1C(=O)c1cc2c(=O)n3ccccc3nc2s1 (centres undefined)
29: CCOc1ccc(Nc2nc(Cc3nnc(SCC(=O)N(CC)CC)n3C)cs2)cc1
30: O=C(N/N=C/c1sc(=O)[nH]c1-[n+]1ccccc1)c1ccccc1[O-]

screen / no.	25	26	27	28	29	30
Rango-impB inh	?	0.7%	3.6%	?	-0.5%	1.8%
GLA inh pH 4.5	2	nt	-10	nt	-3	-23
miR-21 reporter	2%	nt	?	-91%	-1%	1%
Rango release inh	?	6%	-16%	-20%	6%	-4%

31: C/C(=N\NC(=O)c1ccc(O)cc1)c1cccc(NC(=O)c2ccc(Cl)cc2)c1
32: O=C(NCCN1CCN(Cc2ccccc2Cl)CC1)Nc1ccccc1
33: COc1ccc(-n2nnc3c(SCC(=O)NCc4ccco4)ncnc32)cc1
34: Cc1nc2ccccc2c(=O)n1CC(=O)N1CCOCC1
35: COc1ccc2cc(C(=O)N3CCN(C)CC3)[nH]c2c1
36: COc1ccc(N2CCN(c3nc(NCCO)nc(N4CCOCC4)n3)CC2)cc1

screen / no.	31	32	33	34	35	36
Rango-impB inh	0.2%	-4.0%	-0.2%	4.4%	-0.5%	0.3%
GLA inh pH 4.5	nt	-5	5	8	nt	6
miR-21 reporter	nt	-2%	9%	-1%	-45%	-11%
Rango release inh	4%	0%	1%	2%	1%	-12%

37: Cc1ccc(C(=O)NN=C2CCCCCC2)s1
38: CCOC(=O)C1=NN(C(C)=O)C2C(=O)N(CC)C(=O)C12 (centres undefined)
39: O=C(CCl)N(c1ccc(Cl)cc1)c1c[nH]c2ccccc12
40: CCOc1ccc(N(CC(=O)NCC2CCCO2)S(=O)(=O)c2ccc(OC)c(OC)c2)cc1 (centres undefined)
41: COc1cc(OC)cc(C(=O)NCC(=O)OCC(=O)c2ccc3c(c2)-c2ccccc2C3)c1
42: c1ccc2c(c1)[nH]c1ccccc12

screen / no.	37	38	39	40	41	42
Rango-impB inh	1.1%	0.4%	2.3%	-1.5%	0.2%	0.5%
GLA inh pH 4.5	nt	-3	-2	-2	-11	nt
miR-21 reporter	-39%	1%	?	2%	-14%	nt
Rango release inh	5%	-24%	-9%	-5%	?	8%

43: FC(F)(F)c1cnc(Sc2nnc(-c3cccs3)n2CC2CCCO2)c(Cl)c1 (centres undefined)
44: Cc1ccc(C)c(S(=O)(=O)Nc2ccc(S(=O)(=O)Nc3ncccn3)cc2)c1
45: C=CCc1cc(/C=N\NC(=O)CSc2nnc(CCCc3ccc(OC)c(C)c3)o2)cc(OC)c1O
46: Cn1cc(Cl)c(-c2n[nH]c(=S)n2-c2ccc(F)cc2)n1
47: COc1cccc(NC(=S)N2CCCC2c2ccc(OC)c(OC)c2)c1 (centres undefined)
48: Cc1ccc(C(C(=O)NCCc2ccccc2)N(C(=O)c2csnn2)C2CC2)o1 (centres undefined)

screen / no.	43	44	45	46	47	48
Rango-impB inh	5.6%	8.1%	-4.4%	3.4%	-0.1%	2.0%
GLA inh pH 4.5	3	nt	4	-1	0	4
miR-21 reporter	-3%	nt	-13%	-1%	-48%	-27%
Rango release inh	-20%	-1%	-1%	-17%	0%	10%

49: NC(=O)c1ccc(NC(=O)CNc2cc(S(=O)(=O)N3CCOCC3)ccc2N2CCCC2)cc1
50: Cc1ccc(C)c(OCC(=O)N2CCN(c3ncccn3)CC2)c1
51: Cc1cc(Nc2ccccc2)n(-c2ccc(Br)cc2)n1
52: Clc1ccc(-c2cn(-c3ccc(Cl)cc3)c3[n+]2CCCCC3)cc1
53: CCOc1ccc(S(=O)(=O)N2CCCC(C(=O)NCc3ccncc3)C2)cc1C (centres undefined)
54: COC(=O)c1ccc(CSc2nnc(-c3ccc4c(c3)OCO4)n2-c2ccccc2)o1

screen / no.	49	50	51	52	53	54
Rango-impB inh	0.3%	0.1%	5.5%	-3.9%	-0.1%	-0.4%
GLA inh pH 4.5	nt	nt	-1	0	nt	0
miR-21 reporter	nt	nt	13%	20%	14%	-1%
Rango release inh	-3%	0%	-11%	-2%	-6%	-1%

55: O=C(COc1ccc(-c2ccccc2)cc1)NNC(=O)Nc1ccc(F)cc1F
56: CCOC(=O)Cc1csc(NC(=O)NC2(C(F)(F)F)Oc3ccc(Cl)cc3O2)n1 (centres undefined)
57: C=CCN1C(=O)/C(=C/c2ccc(N(C)C)cc2)S/C1=N\c1nnc(CC)s1
58: CCOC(=O)c1ccc(-n2cc(C(=O)c3cccnc3)nn2)cc1
59: CCOC(=O)CCCc1sc(N)nc1-c1[nH]c(=O)[nH]c1C
60: COc1cccc(/C=N/Nc2nn3cnnc3c3ccccc23)c1

screen / no.	55	56	57	58	59	60
Rango-impB inh	-1.2%	3.4%	nt	-0.1%	4.3%	-0.5%
GLA inh pH 4.5	nt	-3	3	nt	-1	-10
miR-21 reporter	-5%	-17%	0%	-1%	-12%	-1%
Rango release inh	-1%	1%	nt	23%	-18%	1%

61: CCC1(CC)C(=O)C2=C3C1[C@H](C(=O)OC)C=C(C(=O)OC)C[C@H]3[C@H]1C(=O)N(Cc3ccccc3)C(=O)[C@H]1[C@H]2C (some centres undefined)
62: Oc1ccccc1/C=N/n1cnnc1
63: Cc1ccc(S(=O)(=O)N2C(=O)/C(=C3\SC(=S)NC3=O)c3ccccc32)cc1
64: COc1cccc(CC2(CO)CCCN(Cc3ccccc3Cl)C2)c1 (centres undefined)
65: COc1ccc(NC(NC(=O)c2ccc(OC)cc2)C(Cl)(Cl)Cl)cc1 (centres undefined)
66: CCOc1ccc(N2C(=O)CC(N3CCN(c4ccc([N+](=O)[O-])cc4)CC3)C2=O)cc1 (centres undefined)

screen / no.	61	62	63	64	65	66
Rango-impB inh	-2.0%	?	nt	-4.4%	-0.3%	-1.4%
GLA inh pH 4.5	nt	3	7	nt	-8	nt
miR-21 reporter	nt	6%	-2%	-1%	11%	4%
Rango release inh	3%	?	nt	-20%	-11%	-5%

67: CN(Cc1c(F)cccc1Cl)C(=O)c1ccc(NC(=O)CC2SC(N3CCCC3)=NC2=O)cc1 (centres undefined)
68: Cc1csc2nc(CNS(=O)(=O)c3cccnc3)cn12
69: COc1ccc(-n2c(SCC#N)nc3ccccc3c2=O)cc1
70: CC1(C)CC(=O)C(C=NCC2CCNCC2)=C(O)C1

screen / no.	67	68	69	70
Rango-impB inh	2.4%	?	-2.8%	-3.5%
GLA inh pH 4.5	nt	nt	-15	-6
miR-21 reporter	nt	nt	-1%	-7%
Rango release inh	22%	-6%	-1%	-17%
